# MT1-MMP act inh – MT1-MMP (human) activation inhibition | P50281 | AID 651647 | 0.061% of 360,000 active | GFP/RFP ratio change, % at 20 µM | HT1080 RFP-PRO-GFP cells, GFP/RFP ratio fluorescence, overnight; percent of plate control window, DMSO zero;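 active means GFP/RFP ratio change of at least 30% with cell ATP level not reduced by more than half and red fluorescence within 50% of control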; further: strong numbers were not always called active
#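 Assay system: HT1080 cells carrying an RFP-PRO-GFP reporter | Dosing: Single dose of 20 µM compound, 1% DMSO final | Incubation: Cells overnight before dosing, compound overnight, 37 °C, 5% CO2 | Evaluation: GFP/RFP fluorescence ratio | Control set: DMSO and RFP-L50D-GFP cell wells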
# Yeast UUG start – modulators of start codon recognition fidelity in yeast | S. cerevisiae UUG-firefly luciferase reporter, luminescence/redox ratio | activity score, % at 18.7 µM | 0.13% of 350,000 active | AID 602363;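 active means replicate mean at a twofold rise or more, about +100% in these data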;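 further: firefly luciferase made from a UUG start codon reports start codon fidelity; reporter light over untreated wells divided by growth signal over untreated wells; some hits fall short of that in this replicate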
# eIF4H inh – inhibitors of RNA binding by human eIF4H; 0.94% of 290,000 active; inhibition, % at 35 µM; eIF4H fluorescence polarization binding assay; AID 2012; Q15056;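 active means 50% or more with normal probe brightness, or confirmed in later tests; inconclusive means above 50% with abnormal brightness, or retests that disagree; inactive means below 50% or failed in later tests; about a fifth of its hits are not listed in these tables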;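 further: calls also rest on retests at 20 µM and on dose response follow-up; 0% = protein and probe with vehicle and 100% = probe without protein; strong numbers were not always called active; many hits fall short of the cut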
# Env fusion inh – inhibitors of HIV Env-mediated cell fusion | HeLa-JRFL Env/CEM21 cell fusion, luciferase | inhibition, % at 12.3 µM | 1.1% of 360,000 active;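 active means mean replicate inhibition score of at least 50 and every replicate individually at or above 50; inconclusive means only one of the two criteria met; inactive means mean below 50 and not all replicates reaching 50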;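 further: 0% = plate neutral controls and 100% = maraviroc near 300 nM; one replicate is shown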
# PABP FP inh – PABP-poly(A) binding inhibition | 1% of 290,000 active | inhibition, % at 35 µM | P11940 | PABP-poly(A) RNA binding, fluorescence polarization;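 active means 50% or more with normal probe brightness, or confirmed in later tests; inconclusive means above 50% with abnormal brightness, or retests that disagree; inactive means below 50% or failed in later tests; about a fifth of its hits are not listed in these tables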;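 further: calls also rest on retests at 20 µM and on dose response follow-up; controls were probe without protein and protein plus probe with vehicle; some compounds called inactive have numbers as strong as hits; many hits fall short of the cut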
# Target sequence (P11940 whole entry, looked up): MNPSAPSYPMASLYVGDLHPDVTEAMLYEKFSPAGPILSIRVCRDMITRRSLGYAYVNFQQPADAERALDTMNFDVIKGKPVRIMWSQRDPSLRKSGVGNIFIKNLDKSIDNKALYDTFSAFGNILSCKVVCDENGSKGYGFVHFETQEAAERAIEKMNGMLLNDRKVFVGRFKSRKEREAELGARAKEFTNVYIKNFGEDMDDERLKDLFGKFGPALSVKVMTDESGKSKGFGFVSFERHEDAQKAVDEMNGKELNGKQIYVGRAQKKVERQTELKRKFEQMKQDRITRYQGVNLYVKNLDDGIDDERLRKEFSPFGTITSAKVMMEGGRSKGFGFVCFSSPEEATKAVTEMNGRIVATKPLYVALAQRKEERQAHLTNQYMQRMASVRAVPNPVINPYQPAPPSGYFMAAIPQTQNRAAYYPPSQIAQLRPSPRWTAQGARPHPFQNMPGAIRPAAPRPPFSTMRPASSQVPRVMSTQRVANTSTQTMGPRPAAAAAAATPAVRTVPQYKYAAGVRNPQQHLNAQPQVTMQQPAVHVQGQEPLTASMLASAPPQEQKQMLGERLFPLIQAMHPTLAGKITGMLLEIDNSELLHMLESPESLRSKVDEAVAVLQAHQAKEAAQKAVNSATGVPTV
# Rce1 inh – blocks yeast Ras-converting enzyme | Q03530 | yeast membranes, quenched prenylated peptide cleavage fluorescence | calls only | 0.27% of 290,000 active;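 active means fall in fluorescence gain of 50% or more versus controls, with final raw signal at or below 3038400; inconclusive means same 50% fall but final raw signal above 3038400; inactive means fall in fluorescence gain under 50%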;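 further: plate controls were neutral control wells for no effect and wells lacking membranes for full effect; tested at 10 µM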
# CSC inhib – blocks cancer stem cells. cancer stem cell-like cells viability, luminescence. inhibition, % at 7.5 µM. 1.1% of 300,000 active;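 active means mean at 75% or more and at least half the replicates too; inconclusive means mean and replicates disagree; tested in HMLE shEcad cells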;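 further: 0% = median of negative and 100% = median of positive control wells; the first replicate is given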
# eIF4H inh retest – further read-out of eIF4H inh, marked with its call; inhibition, %; compound at 20 µM; confirmation average;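 mean of two retest wells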
# PABP FP inh retest – recorded beside PABP FP inh, whose call it bears; inhibition, %; compound at 20 µM; confirmation repeats;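 mean of two retest wells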
# MT1-MMP act inh RFP – recorded beside MT1-MMP act inh, whose call it bears; RFP signal change, %; measured here: RFP expression control read;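 0 = vehicle wells; hits needed this value within 50% of zero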
# An asterisk follows results filed as active; i = inactive; ? = inconclusive; . = not tested or not shown.
SMILES,MT1-MMP act inh,MT1-MMP act inh RFP,Yeast UUG start,eIF4H inh,Env fusion inh,PABP FP inh,Rce1 inh,CSC inhib,others
CCOc1ccc(S(=O)(=O)NC2CCCC2)cc1,3.3,6.6,-2.5,6.3,-13.4,-1.1,i,8.4,
Fc1cccc(Cc2noc(CN3CCCN(C4Cc5ccccc5C4)CC3)n2)c1,-1.0,3.4,.,-5.3,10.1,4.7,i,33.8,
COc1ccccc1NC(=O)c1sc2ncn(Cc3ccccc3C)c(=O)c2c1C,-1.2,-1.5,.,?,.,?,i,.,
COCCn1c(SCCOc2ccccc2)nc2ccccc2c1=O,-6.5,-11.2,-13.0,1.1,3.3,-11.7,i,3.9,
Cc1cccnc1NC(=O)Nc1ccc(Cl)cc1,-0.2,-4.4,-5.5,9.1,-11.9,5.0,i,4.0,
COc1cc(-c2nc(S(=O)(=O)c3ccccc3)c(N3CCOCC3)o2)cc(OC)c1OC,-8.5,-4.1,-18.0,-1.7,8.2,9.4,.,-12.3,
Cc1cc(-c2ccc(C(C)C)c(S(=O)(=O)NCCN3CCC(C)CC3)c2)on1,1.9,-0.9,-23.0,-14.5,-12.4,2.9,i,-7.8,
Cc1cccc(NC(=O)CSCC(=O)Nc2ccccc2N2CCCC2)c1,-0.3,-1.3,-11.9,9.7,9.1,43.7,i,-14.0,
O=C(NCc1ccccc1)c1cccnc1Sc1ccccc1,-2.0,3.5,-10.6,-0.8,-26.0,0.5,i,.,
C=C(C)Cn1c(CN(C)Cc2ccccc2)nc2c1c(=O)n(C)c(=O)n2C,-2.0,-22.6,-6.7,-10.0,-7.2,-19.8,i,-8.0,
O=C(CSc1ncc(-c2ccccc2)[nH]1)Nc1ccccc1,-2.7,-1.0,-14.1,-8.0,.,-2.1,i,6.9,
COc1ccc(S(=O)(=O)Nc2ccc3c(c2)N(C(C)=O)CCC3)cc1OC,-1.5,-7.5,8.7,.,-0.4,.,i,11.0,
CCOc1ccc(CN2CCC(Cc3ccccc3)CC2)cc1,-0.7,1.1,-19.3,16.1,0.3,4.2,i,33.6,
CCOc1ccc(NC(=O)N[C@@H](CCSC)C(=O)OC)cc1,-5.8,-1.7,-10.9,-3.9,.,-8.1,i,-6.1,
Cc1ccccc1CNC(=O)Cc1ccccc1[N+](=O)[O-],-0.8,4.3,.,9.8,-24.5,9.8,i,-8.1,
CCOC(=O)c1ccc2nc(CCC(=O)N[C@H](C(=O)OC)C(C)C)c(=O)n(CC)c2c1,6.9,5.5,-2.6,77.9,22.4,-7.0,i,.,eIF4H inh retest=-8.8;PABP FP inh retest=4.2
CC(=O)Nc1ccc(C(=O)OCC(=O)NCc2ccccc2)cc1,-1.9,-2.5,.,-6.9,-20.7,-21.4,i,25.3,
Cc1ccc(C(=O)NCC(=O)OCC(=O)N(CC(C)C)c2c(N)n(Cc3ccccc3)c(=O)[nH]c2=O)cc1,-1.4,-1.3,.,.,-5.8,.,i,-3.5,
CCc1nc2ccc(C(=O)N(C)Cc3ccccc3)cn2c1N(C)Cc1ccc(OC)cc1,-6.8,0.5,-23.7,.,41.3,.,.,.,
CCCN1C2CCCC1CC(NC(=O)c1ccccc1F)C2 (stereo unspecified),4.9,11.4,-18.6,-11.4,0.3,-2.9,i,3.3,
CCn1c(-c2ccccc2)csc1=Nc1ccc(O)cc1,2.5,-3.7,.,-4.4,-47.1,0.6,i,66.7,
COC(=O)c1ccc2c(=O)n(NC(C)=O)c(=S)[nH]c2c1,6.7,3.1,.,-3.2,-51.1,-2.2,i,-14.4,
Cc1ccc(-n2ncc3c2CCCC3NC(=O)CSc2ccccn2)cc1C (stereo unspecified),2.8,-9.9,-8.0,-0.9,12.0,6.0,i,-6.8,
c1ccc(-c2cn(-c3ccccc3)c3ncnc(N4CCCCC4)c23)cc1,-0.4,-6.3,.,-7.4,21.5,1.9,i,71.4,
C=CCn1cnc2scc(-c3ccc(C)c(C)c3)c2c1=O,-2.5,1.2,.,-6.6,10.3,8.2,i,-10.5,
Cc1cc(C)nc(SCc2nc(N)nc(-c3ccccc3O)n2)n1,-3.8,1.8,-11.5,-5.8,-277.0,-2.2,i,-6.9,
O=[N+]([O-])c1c(NCCO)cc(N2CCN(Cc3ccc4c(c3)OCO4)CC2)c2nonc12,3.9,4.1,-30.3,-1.2,-13.9,-6.9,i,2.5,
O=C1C2CCc3ccccc3C2N1c1ccccc1 (stereo unspecified),-3.8,0.8,-13.4,.,-5.3,.,.,-23.0,
Cn1cccc1/C=N/NC(=O)c1cccnc1,3.8,5.5,-20.1,-6.4,-44.0,4.6,i,1.7,
Cc1ccc(NC(=O)c2cc(NC(=O)c3ccccc3C(=O)O)ccc2N2CCCCC2)cc1,2.7,-0.8,.,-0.4,-10.9,7.7,i,15.6,
COc1ccc2c(C#N)c3ccccn3c2c1,-18.9,-2.5,9.1,16.9,-8.0,2.6,i,-2.8,
COc1cccc(OC)c1OCCN1CCCC1,-0.4,2.3,-8.5,-1.0,-16.8,4.6,i,-11.7,
Cc1c(C(=O)c2ccccc2)c(=O)n(C)c(=O)n1C,5.6,6.6,.,-12.1,-0.7,-2.3,i,1.8,
COc1ccc(NC(=O)CSc2nnc(C(C)C)n2N)cc1,2.0,4.2,-9.6,-3.9,.,0.5,i,-5.1,
CC(=O)N1CCN(CC(=O)Nc2ccccc2C(=O)NCc2ccc(C)cc2)CC1,1.9,5.4,2.2,-0.3,14.0,-9.0,i,.,
O=S(=O)(Nc1nc2ccccc2nc1N1CCN(c2ccccn2)CC1)c1ccc(Cl)cc1,-86.2,-2.3,-6.1,?,12.0,-3.8,.,.,
O=C(NCC1CCCO1)c1cc2c(s1)CCC2 (stereo unspecified),-1.3,0.8,.,-1.6,-9.3,7.4,i,-17.0,
Cc1cc(S(=O)(=O)NCc2ccc(S(N)(=O)=O)cc2)c(C)s1,4.4,2.6,-4.5,1.8,-63.5,16.2,i,-10.2,
CCN(CC)CCNc1nc(-n2nc(C)cc2C)nc2sc3c(c12)CC(C)(C)OC3,-7.1,-7.3,.,-6.9,9.8,-3.8,i,13.4,
CCOC(=O)c1c(NC(=O)CN2CCOCC2)sc(C(=O)NC)c1C,-2.4,6.1,-29.7,3.2,-36.6,-3.0,i,2.9,
O=C(CN1C(=O)c2cccc3cccc(c23)C1=O)N1CCCCC1,0.5,-2.2,.,-4.0,-6.8,-3.5,i,0.1,
COc1ccc(OC)c(-c2nn(-c3ccccc3)cc2C(=O)N2CCc3ccccc3C2)c1,-5.1,-2.8,15.1,.,5.0,.,.,-14.7,
O=C(CCNC(=O)C1CCN(S(=O)(=O)c2ccc(F)cc2)CC1)NCc1ccncc1,-1.5,-4.8,-13.4,-14.2,-2.3,8.5,i,-2.7,
COc1ccc(OC)c(S(=O)(=O)N2CCC3(CC2)OCCN3S(=O)(=O)c2cccs2)c1,1.0,-1.3,-9.8,.,15.7,.,i,-0.7,
COC(=O)[C@]1(C)N[C@H](CN(C)S(=O)(=O)c2ccccc2)[C@@H]2C(=O)N(Cc3ccccc3)C(=O)[C@@H]21,0.9,3.4,-6.7,.,5.3,.,.,0.0,
O=C(Nc1cccc([N+](=O)[O-])c1)C12CC3CC(C1)CC(n1cnc([N+](=O)[O-])n1)(C3)C2,-2.4,-2.9,-30.8,-3.8,.,9.7,i,-7.2,
COc1ccc(-n2nc(C(=O)NCC(=O)Nc3cc(C)ccc3OC)c3ccccc3c2=O)c(OC)c1,-2.9,-2.7,-23.3,-4.7,-10.4,-5.8,i,.,
N#Cc1c(N2CCN(C(=O)c3ccccc3Cl)CC2)nc(-c2ccccc2)c2c1CCCC2,-12.9,-12.8,.,-6.4,.,-12.1,i,26.6,
OC(c1ccc(OCc2ccccc2)cc1)c1nnc(-c2ccccc2)o1 (stereo unspecified),-4.5,-24.7,-20.4,10.2,.,-11.6,i,8.0,
Nc1cccc2c1C(=O)N(CC(=O)NC13CC4CC(CC(C4)C1)C3)C2=O,-13.8,-3.6,.,41.7,13.1,14.4,i,-2.1,
O=C(O)CSc1c(-c2ccccc2)c2cc(Cl)ccc2[nH]c1=O,1.3,4.3,.,-3.1,7.2,-3.8,i,6.9,
CCCCn1c(N)c(NCC(C)C)c(=O)[nH]c1=O,-1.8,-0.8,-11.0,49.2,5.8,20.4,i,-20.6,
COc1ccc(-c2nnc(SC)nc2-c2ccc(OC)c([N+](=O)[O-])c2)cc1[N+](=O)[O-],13.3,-2.8,.,.,-5.5,.,i,-9.8,
CCc1nnc(NC(=O)CSc2nc3ccc(OC)cc3[nH]2)s1,1.2,7.3,.,-3.1,-21.3,-15.3,i,.,
CC(=O)/C(N=Nc1ccc(-n2ccc(C(F)(F)F)n2)cc1)=C(\C)O,-2.1,-7.4,-9.6,1.1,9.5,-4.6,i,3.1,
COc1ccccc1CN1CC(C(=O)NCc2ccc(C)c(F)c2)CCC1=O (stereo unspecified),5.8,2.6,1.5,-16.0,4.6,1.0,i,-1.1,
CC(=O)c1cccc(NC(=S)NC(=O)c2ccc(Br)cc2)c1,-5.1,-9.0,-29.4,-6.2,-142.9,0.3,i,-0.9,
O=C(CSc1nc2cccc(F)c2c(=O)n1-c1ccccc1)Nc1ccc2c(c1)CCC2,-9.2,-5.9,-5.7,.,14.4,.,.,.,
CCC(=O)Nc1nc(-c2cc([N+](=O)[O-])cs2)cs1,-1.1,-7.4,.,-8.1,-27.8,4.8,i,.,
CCN(CC)C(=O)c1sc2c(c1C)c(=O)n(-c1ccc(OC)cc1OC)c(=O)n2CC(=O)c1ccccc1,-1.4,1.0,.,-10.2,-1.8,2.4,i,1.9,
# (cont.)
SMILES,MT1-MMP act inh,MT1-MMP act inh RFP,Yeast UUG start,eIF4H inh,Env fusion inh,PABP FP inh,Rce1 inh,CSC inhib,others
CC1(C)C2CC=C(/C=N/NC(=O)c3ccc(Cl)cc3)C1C2 (stereo unspecified),2.4,-0.9,.,2.9,-6.3,6.0,i,2.9,
C=CCOC(=O)/C=C/C(=O)NC(N)=O,0.5,-2.7,-8.3,-0.5,-0.1,10.6,i,0.2,
CCN(CC)C(=O)[C@H]1C[C@H](CC(=O)NCc2cccc(C(F)(F)F)c2)C(=O)N2CCc3c([nH]c4cc(CCC(=O)N(C)C)ccc34)[C@]12C,-0.8,2.5,15.3,.,-83.4,.,.,.,
CCN(CC)S(=O)(=O)c1ccc(NC2=NS(=O)(=O)c3ccccc32)cc1,-6.2,-4.1,-22.8,-0.2,.,4.4,i,-1.6,

# Filtered by structure, the compounds so far containing a Cl atom.
SMILES,MT1-MMP act inh,MT1-MMP act inh RFP,Yeast UUG start,eIF4H inh,Env fusion inh,PABP FP inh,Rce1 inh,CSC inhib,others
Cc1cccnc1NC(=O)Nc1ccc(Cl)cc1,-0.2,-4.4,-5.5,9.1,-11.9,5.0,i,4.0,
O=S(=O)(Nc1nc2ccccc2nc1N1CCN(c2ccccn2)CC1)c1ccc(Cl)cc1,-86.2,-2.3,-6.1,?,12.0,-3.8,.,.,
N#Cc1c(N2CCN(C(=O)c3ccccc3Cl)CC2)nc(-c2ccccc2)c2c1CCCC2,-12.9,-12.8,.,-6.4,.,-12.1,i,26.6,
O=C(O)CSc1c(-c2ccccc2)c2cc(Cl)ccc2[nH]c1=O,1.3,4.3,.,-3.1,7.2,-3.8,i,6.9,
CC1(C)C2CC=C(/C=N/NC(=O)c3ccc(Cl)cc3)C1C2 (stereo unspecified),2.4,-0.9,.,2.9,-6.3,6.0,i,2.9,
